Bioassay records deposited in PubChem BioAssay by National Center for Advancing Translational Sciences (NCATS).
D2 potentiator = potentiates the human D2 dopamine receptor allosterically; P14416; DiscoveRx D2 beta-arrestin cells, luminescence, 90 min; 100% = 57 uM dopamine signal; 360,000 compounds, 0.23% hits; potentiation, % (no concentration beside the values); AID 624464; active = potentiation of 50% or more; inconclusive = 30% to 50%; inactive = 30% or less;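 further: compound concentration not given in the record; tested on top of an EC20 dose of dopamine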
Target sequence (P14416 whole entry, looked up): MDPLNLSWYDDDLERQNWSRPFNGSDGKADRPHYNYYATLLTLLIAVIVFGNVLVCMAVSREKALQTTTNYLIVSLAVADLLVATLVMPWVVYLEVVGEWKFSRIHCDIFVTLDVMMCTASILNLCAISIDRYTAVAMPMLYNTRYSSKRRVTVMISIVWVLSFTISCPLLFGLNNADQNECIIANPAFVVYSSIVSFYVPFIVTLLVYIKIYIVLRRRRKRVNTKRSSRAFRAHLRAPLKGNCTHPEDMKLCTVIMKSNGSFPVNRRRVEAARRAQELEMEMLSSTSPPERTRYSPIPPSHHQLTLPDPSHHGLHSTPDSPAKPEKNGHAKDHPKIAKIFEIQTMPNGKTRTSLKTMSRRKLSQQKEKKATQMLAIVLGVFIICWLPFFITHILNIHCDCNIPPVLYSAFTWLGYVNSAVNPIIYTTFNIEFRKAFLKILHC
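PathHunter beta-arrestin assay in DiscoveRx D2 cells. Compounds were added with an EC20 of dopamine (50 nM final) for 90 min at 37 deg C. Luminescence was read 1 h after detection reagent, with 57 uM dopamine as the EC100 control.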
Six1-Eya2 inh = Six1/Eya2 interaction inhibition; 360,000 compounds, 0.56% hits; AlphaScreen GST-Six1/His-Eya2 binding, biochemical; active compounds read low; control for the full effect not named in the record; activity change, % (concentration not given with the values); Q15475+O00167; AID 651725; in the data active = activity change below about -65%; inconclusive = about -30% to -65%; inactive = above about -30%; further: on the % scale 0 is the no-effect control and ±100 the full control effect
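AlphaScreen luminescence read after one hour at 37 °C in darkness. Pin-transferred compounds met GST-Six1 and His-Eya2 protein (5X stock 250 nM/500 nM) plus glutathione donor and Ni-chelate acceptor beads (5X, 50 ug/mL).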
PINK1 expr mod = PINK1 expression modulation. PINK1 immunofluorescence, high-content cytometry, 24 h. Potency, µM (highest dose often 76.6 µM), without a hit: top-dose activation (PINK1 increase), usual class: activators. 410,000 compounds, 0.2% hits; active = well fitted activation curve with a large enough effect; inconclusive = small, poorly fitted or top-dose-only effect; inactive = flat fitted curve, though single readings scatter; cell line not stated here;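 further: potency means the concentration at half of the fitted maximal effect; % of control where 0% means no effect; nearly all actives have a fitted effect of over 65% in size; a mitochondrial uncoupler was the plate control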
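Compound titrations (5 concentrations, 24 h) on a stable cell line; DMSO and CCCP controls. Endpoint: fixed-cell PINK1 immunofluorescence with mitochondrial, cell and nuclear markers, scanned by microplate cytometer.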
TRPML1 ag = agonists of human TRPML1 channel; Q9GZU1; TRPML1-expressing cells, Ca2+ dye fluorescence, FDSS; host cell line not named in the record; reference of the full effect not given here; activation, % (no concentration beside the values); 410,000 compounds, 0.12% hits; AID 624414; in the data active = activation above about 50%; inconclusive = about 30% to 50%; inactive = below about 30%; further: 0% is about no effect; the text of the record puts the active cut at 80%
Target sequence (Q9GZU1 whole entry, looked up): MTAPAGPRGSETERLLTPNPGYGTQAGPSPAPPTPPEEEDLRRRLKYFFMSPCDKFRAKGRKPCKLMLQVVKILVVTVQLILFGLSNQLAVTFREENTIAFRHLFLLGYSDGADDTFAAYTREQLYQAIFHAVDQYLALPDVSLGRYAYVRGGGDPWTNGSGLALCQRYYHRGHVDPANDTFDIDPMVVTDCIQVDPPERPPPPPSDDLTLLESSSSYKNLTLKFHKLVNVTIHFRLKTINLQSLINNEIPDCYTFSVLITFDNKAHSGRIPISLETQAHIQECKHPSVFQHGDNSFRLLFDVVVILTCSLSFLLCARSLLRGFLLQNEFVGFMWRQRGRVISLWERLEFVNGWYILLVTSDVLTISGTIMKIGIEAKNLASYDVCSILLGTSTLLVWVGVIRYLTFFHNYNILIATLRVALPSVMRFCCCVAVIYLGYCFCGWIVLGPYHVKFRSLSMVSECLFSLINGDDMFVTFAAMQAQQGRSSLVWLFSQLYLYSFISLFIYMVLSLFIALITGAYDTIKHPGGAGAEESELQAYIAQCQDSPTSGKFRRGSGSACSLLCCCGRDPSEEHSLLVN
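TRPML1-DL cells, Tet-induced overnight (~16 h, 37 degrees C), loaded 45-90 min at room temperature with Ca8 no-wash calcium dye plus quencher. FDSS fluorescence: 10 s baseline, compound pin-transfer, 110 s agonist read, then EC80 54-4 (4uM final) and 110 s antagonist read.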
TRPML1 inh = blocks the human TRPML1 channel | Q9GZU1 | activity change, negative = inhibition, % (concentration not given with the values) | AID 624415 | TRPML1-inducible cells, Ca2+ dye fluorescence, FDSS; active compounds read low; inhibition of EC80 agonist-evoked calcium signal | 390,000 compounds, 0.02% hits; in the data active means activity change below about -50%; inconclusive means about -30% to -50%; inactive means above about -30%;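 further: stimulus is agonist 54-4 at its EC80 concentration; on the % scale 0 is the no-effect control and ±100 the full control effect; the text of the record puts the active cut at -80%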
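Calcium fluorescence in TRPML1-DL cells induced overnight with Tet: a 110 s read after compound pin addition, then a 110 s antagonist read after challenge with 54-4 at 4 uM final (EC80).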
D2 agonist = activates the human D2 dopamine receptor | 360,000 compounds, 0.084% hits | P14416 | activation, % (test concentration not listed) | DiscoveRx PathHunter D2 beta-arrestin, luminescence, 90 min; 100% = 57 uM dopamine signal; in the data active = activation above about 40%; inconclusive = about 15% to 40%; inactive = below about 15%; further: compound concentration not given in the record; the text of the record calls up to 30% inactive
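Agonist mode: compounds alone added to overnight-plated D2 PathHunter cells for 90 min at 37 C, with 57 uM final dopamine (EC100) defining full response. Beta-arrestin recruitment detected by chemiluminescent reagent, read after 1 h at ambient temperature.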
The depositor's hits bear a star; ? = inconclusive; . = not tested or not shown; [ ] = another dose, or the depositor's remark.

SMILES | D2 potentiator | Six1-Eya2 inh | PINK1 expr mod | TRPML1 ag | TRPML1 inh | D2 agonist
CCOC(=O)c1cnc(SC)nc1NCCOC | -9.5 | 1.5 | 0.5% | -0.7 | -18.0 | 0.4
CN(Cc1nccn1C)C(=O)C1CCC(=O)N(Cc2cccc(C(F)(F)F)c2)C1 (stereo not given) | -7.4 | 6.5 | -0.2% | 1.0 | -10.4 | 5.8
COc1ccc(C(=O)C2CCCN(Cc3cnc(N4CCOCC4)s3)C2)c(OC)c1 (stereo not given) | -6.2 | -23.6 | 1.0% | -0.4 | -4.9 | -4.4
O=C(NCc1cccs1)C(Cc1ccccc1)NS(=O)(=O)c1cccs1 (stereo not given) | 6.9 | 5.1 | -1.9% | 0.7 | -3.1 | -0.8
C=CCn1cnc2scc(-c3ccc(CC)cc3)c2c1=O | 1.3 | 0.3 | 0.4% | 1.7 | -5.2 | -1.7
COc1ccccc1NC(=O)c1cccc(S(=O)(=O)N2CCCCCC2)c1 | . | . | -0.5% | 0.8 | 9.8 | .
Cc1ccc2nc(-c3ccc(N4C(=O)CC(N5CCN(CCO)CC5)C4=O)cc3)sc2c1 (stereo not given) | 14.0 | -7.3 | 24.1% | 0.1 | -6.3 | 3.8
CC(NS(=O)(=O)c1cn(C)c(=O)n(C)c1=O)c1ccccc1 (stereo not given) | 12.8 | 4.0 | 0.4% | 0.0 | -10.7 | -2.4
Cc1ccc(S(=O)(=O)N2CCN(C(=O)CCCN3C(=O)NC4(CCCC4)C3=O)CC2)cc1C | -1.3 | 1.6 | 0.5% | 2.5 | 22.9 | 0.1
COc1cccc(Oc2cc(Cl)nc(N)n2)c1 | 1.0 | 4.1 | 0.8% | 0.0 | 3.4 | 8.5
COc1ccc(OC)c2c1CCC2=O | 3.4 | 14.5 | -0.8% | -0.4 | 8.5 | 1.3
Cc1ccc(NNC(=O)C(O)(c2cccc(C(F)(F)F)c2)c2cccc(C(F)(F)F)c2)cc1 | -3.7 | 1.8 | ? | -0.1 | -12.2 | -0.2
CC(=O)Nc1ccc2nc(NC(=O)c3cccnc3)sc2c1 | -3.0 | 5.5 | 1.8% | 1.0 | 2.7 | -4.7
CC(=O)Nc1ccc(S(=O)(=O)N(C)CC(=O)OCC(=O)N2CCN(C(=O)c3ccco3)CC2)cc1 | -14.5 | -14.0 | -2.5% | 0.7 | -15.0 | 0.0
CCOc1cc(/C=N/Nc2nc(Nc3ccccc3)nc(N3CCCCC3)n2)ccc1OCC(=O)O | -4.8 | -6.6 | -0.4% | 1.0 | -9.7 | -0.2
COc1ccccc1CNC(=O)CCC(=O)N1CCOc2ccc(Cl)cc21 | -12.1 | -1.7 | 1.1% | 0.1 | -0.8 | 0.7
CCCCN(C)S(=O)(=O)c1c(C)[nH]c(=O)[nH]c1=O | 7.0 | 4.7 | . | -0.1 | -1.7 | -1.9
Cc1ccccc1C(=O)N1c2ccccc2OCC1C(C)(C)C (stereo not given) | 1.4 | -12.7 | -0.5% | 0.3 | -1.7 | -5.3
CCOC(=O)c1ccc(N(C(=O)c2ccco2)C(C(=O)NC2CCCCC2)c2ccncc2)cc1 (stereo not given) | 1.9 | 0.5 | -0.1% | 0.7 | 14.7 | 0.8
COc1cccc(CNC(=O)CCC2CCCN(C(=O)c3ccc(F)c(Cl)c3)C2)c1 (stereo not given) | 1.8 | 1.9 | -1.0% | 0.8 | 15.1 | -2.4
CC(C)CC(=O)Nc1nc2c(c(=O)[nH]1)CCCC2 | 5.0 | 2.9 | 0.8% | -0.5 | 9.0 | -2.4
COc1ccccc1-n1c(CNC(=O)c2ccco2)nnc1SCC(=O)Nc1ccc(F)cc1 | -8.0 | 0.7 | -1.6% | 0.9 | 0.0 | -1.7
O=[N+]([O-])c1cccc(N2Cc3ccccc3C2)c1 | -28.8 | 21.3 | 7.6% | 0.2 | -4.1 | -4.3
Cc1c(NP(=O)(c2ccc(Br)cc2)c2ccc(Br)cc2)c(=O)n(-c2ccccc2)n1C | -5.8 | -4.8 | 2.0% | 1.2 | 9.4 | -2.8
O=C(Nc1cccnc1)c1cc(-c2cccc(Br)c2)nc2ccccc12 | -25.0 | -5.0 | 5.4% | -0.4 | 3.8 | 2.0

Other records
SMILES | D2 potentiator | Six1-Eya2 inh | PINK1 expr mod | TRPML1 ag | TRPML1 inh | D2 agonist
O=S(=O)(c1ccccc1Cl)N1CCCC1c1nc(-c2ccccc2Cl)no1 (stereo not given) | 5.7 | 9.4 | -2.6% | -0.1 | -6.9 | 1.9
Nc1cc(=O)[nH]c(SCC(=O)Nc2cc(Cl)ccc2Cl)n1 | -20.8 | 9.8 | 0.7% | -0.2 | -15.5 | -2.3
COc1ccccc1NC(=O)CN1CCN(CC(=O)Nc2cc(C)ccc2OC)CC1 | -2.3 | -6.0 | 2.7% | 1.6 | 16.7 | -0.2
O=C(Cn1nc(C(F)F)cc1C(F)F)N/N=C/c1ccc2c(c1)OCO2 | -6.1 | 2.9 | 1.6%[38.3 µM] | -0.2 | -9.1 | -2.7
CC(=O)Nc1ccc(NC(=O)C(C)OC(=O)c2cccc(S(=O)(=O)N3CCCCC3)c2)cc1 (stereo not given) | -8.0 | -0.1 | 1.9% | 1.3 | -16.6 | -1.4
Cc1ccc2c(Cl)cc(Cl)c(OCC(=O)NCCc3ccccn3)c2n1 | -1.9 | 6.7 | 1.9% | 0.9 | -9.2 | -3.7
CC(=O)Nc1ccc(NC(=O)c2ccc(S(=O)(=O)N3CCCCCC3)cc2)cc1 | -14.3 | -3.9 | 10.3% | -0.4 | -1.9 | -4.5
Cc1nn(-c2ccccc2)c2c1C(c1ccc(Cl)cc1)N(c1ccccc1)C(=O)N2 (stereo not given) | -1.2 | 1.6 | 2.6% | 0.4 | 6.4 | -2.1
COCCNC(=O)CN1CCC(NC(=O)Nc2ccc(C(F)(F)F)cc2)CC1 | 7.1 | 6.1 | -15.7%[38.3 µM] | -0.7 | -5.5 | -2.6
COc1ccc(CC(=O)NCC(=O)N/N=C/c2cc(Br)ccc2OC)cc1 | -8.1 | ? | -1.0% | -0.3 | -16.0 | -1.9
O=C(CNCc1ccc(F)cc1)Nc1ccc(C(=O)N2CCCCC2)cc1 | -27.9 | 4.5 | 0.8% | 0.2 | 0.5 | -7.9
CCc1ccc(N/C(SCc2ccccc2C)=C(/C#N)C(=O)NCc2ccco2)cc1 | -14.0 | -5.0 | -3.0% | 8.9 | -5.3 | -0.3
Cn1nc(C(F)(F)F)c(-c2cccc(C(F)(F)F)c2)c1NC(=O)c1nccnc1C(=O)O | -4.7 | 2.6 | 1.2% | 0.8 | 35.2 | -2.9
COCCOC(=O)C1=C(C)OC(N)=C(C#N)C1c1ccc2c(c1)OCO2 (stereo not given) | 2.1 | -0.2 | -0.9% | -1.4 | -10.9 | -3.2
Cc1nn(Cc2ccccc2)c(Cl)c1/C=C/C(=O)OC(C(=O)NC(N)=O)C(C)C (stereo not given) | 0.7 | -1.7 | 5.2% | 0.9 | 10.1 | -2.5
O=C(NCc1ccccn1)c1ccc(Cl)c(S(=O)(=O)NCc2ccccc2)c1 | -6.3 | -15.1 | -0.2% | -0.8 | -1.5 | -2.9
CCN(CC(=O)Nc1ccc(OC)cc1)C(=O)c1cc(S(=O)(=O)N(C)C)ccc1N1CCCC1 | -16.0 | 1.6 | -3.3% | 2.7 | -0.6 | -1.6
CC(=O)C1=C(O)C(=O)N(c2ccc(Br)cc2)C1c1cccc(F)c1 (stereo not given) | -21.6 | -0.1 | -1.1% | -0.6 | -2.8 | -4.7
CCC(=O)NCC(=O)OCC(=O)c1ccccc1 | -4.0 | 2.7 | 0.1% | 0.0 | -6.3 | -3.5
CN(C)CCNC(=O)/C=N/O | -3.1 | 7.9 | 0.0% | -0.2 | -1.1 | -2.5
Cc1ccc(/C(N)=N/OC(=O)Oc2ccccc2)cc1 | -11.9 | 6.0 | -0.1% | 0.1 | 26.1 | -2.9
O=C(N/N=C/C=C/c1ccccc1)c1ccccc1Br | -19.9 | -3.5 | 0.6% | 1.4 | -17.8 | -1.9
C=CCn1c(CSc2nc3ccccc3s2)nnc1SCC(=O)NCCN1CCOCC1 | -9.0 | 1.6 | 22.6%[38.3 µM] | -0.4 | -7.1 | -2.9
CCOC(=O)C1=C(C)NC(=O)NC1c1ccc(OCC(N)=O)cc1 (stereo not given) | -1.0 | 0.2 | -1.9% | -0.6 | 7.8 | -1.0
COc1ccc(-c2nnc(NC(=O)c3ccc(S(=O)(=O)N(C)CC4CCCO4)cc3)o2)c(OC)c1 (stereo not given) | 8.0 | ? | 1.9% | -0.6 | 7.7 | -4.1

Next part.
SMILES | D2 potentiator | Six1-Eya2 inh | PINK1 expr mod | TRPML1 ag | TRPML1 inh | D2 agonist
Cc1cc(NC(=O)c2cc3n(n2)C(C(F)(F)F)CC(c2ccco2)N3)n(-c2ccccc2)n1 (stereo not given) | 0.4 | -3.7 | 2.4% | -1.0 | 20.8 | -2.9
COC(=O)c1cn(-c2ccccc2)nc1-c1ccccc1 | 1.0 | 15.3 | 5.3% | 0.8 | -8.9 | -1.0
CCc1cccc(-n2nnc(-c3nsc(NC(=O)c4cccs4)n3)c2C)c1 | . | . | 5.8% | -0.7 | 20.7 | .
CC(C)(C)NC(=O)CCCSc1nc2ccccc2s1 | -0.3 | -0.6 | 1.9% | 1.5 | 5.5 | 4.9
O=C(O)CSc1nc(-c2ccccc2)nc2c1CCCC2 | -3.9 | 0.5 | 0.3% | . | . | -6.9
CC(Sc1nnnn1C1CC1)C(=O)N1CC(=O)Nc2ccccc21 (stereo not given) | 28.2 | 3.4 | -1.1% | -0.2 | -10.4 | 2.8
COc1ccc(OC)c(S(=O)(=O)N2CCN3CCCC3C2)c1 (stereo not given) | -7.2 | 1.4 | -0.2% | 0.4 | -22.8 | -0.5
Cc1cccc(C(=O)NNS(=O)(=O)c2ccc(F)cc2)c1O | -20.8 | 11.5 | -0.4% | -0.8 | 12.1 | 2.7
CC(C)N(C(=O)Nc1ccc2nsnc2c1)C(C)C | 5.0 | 0.3 | 2.1% | 4.3 | -10.9 | 5.8
COc1ccccc1CNC(=O)CCn1cnc2ccccc2c1=O | . | . | 0.9% | -0.1 | 4.7 | .
CCC1ON(C(C)C)C2c3nc4ccccc4n3CC12 (stereo not given) | -5.0 | 13.1 | 1.2% | -0.3 | -11.5 | -1.3
COc1cc2c(C(=O)NCCCN3CC(C)CC(C)C3)cn(CC(C)C)c(=O)c2cc1OC (stereo not given) | -14.1 | 0.8 | 0.4% | -0.4 | 13.1 | -3.1
O=C1CCC(=O)N1c1ccc(NCCc2ccccc2F)c([N+](=O)[O-])c1 | -7.4 | 2.4 | -0.5% | 1.0 | -7.4 | -4.7
O=C(/C=C/c1ccc(Cl)cc1Cl)NC(=S)Nc1ccccn1 | -7.4 | -2.3 | 4.9% | 0.2 | 17.6 | -2.1

Random excerpt: 2 records from the list.
SMILES | D2 potentiator | Six1-Eya2 inh | PINK1 expr mod | TRPML1 ag | TRPML1 inh | D2 agonist
CC(C)(C)NC(=O)CCCSc1nc2ccccc2s1 | -0.3 | -0.6 | 1.9% | 1.5 | 5.5 | 4.9
COC(=O)c1cn(-c2ccccc2)nc1-c1ccccc1 | 1.0 | 15.3 | 5.3% | 0.8 | -8.9 | -1.0

Random draw from the library, and some 1% of all compounds hit somewhere here.
